rRNA inh HTS: inhibits bacterial ribosomal RNA function over humanized ribosomes | 1.6% of 350,000 active | E. coli WT GFP vs humanized-ribosome RFP mutants, fluorescence, 24 h; active compounds read low; DMSO median 0, no signal -100 | GFP signal change (wild-type ribosome), % (test concentration not listed);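 active means significant combined selectivity score with lowered wild-type GFP, culture density cut under 30%, mutant RFP and density less affected; inactive means any of these conditions unmet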; further: one replicate is shown; some compounds called inactive have numbers as strong as hits
rRNA inh HTS OD600: recorded beside rRNA inh HTS, whose call it bears; OD600 change, %; measured here: OD600 growth;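 optical density of the mix in the first replicate; 0 = DMSO median and -100 = no signal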
rRNA inh HTS RFP: second read-out of rRNA inh HTS, no call of its own (marks repeat the call); RFP signal change, %; measured here: RFP humanized mutant strains;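 first replicate; 0 = DMSO median and -100 = no signal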
The depositor's hits bear a star; & = joins results of further samples.

SMILES | rRNA inh HTS | rRNA inh HTS OD600 | rRNA inh HTS RFP
CC(C)C#Cc1ccc([C@@H]2[C@H]3CN(C(=O)NC4CCCC4)CC(=O)N3[C@H]2CO)cc1 | -4 | -6 | 11
O=C(CC1CC1)N1CC[C@@H]2[C@@H](CO)Nc3ccc(-c4ccc(F)cc4)cc3[C@@H]21 | -10 | -38 | -3.4
CNC[C@@H]1OCCCC[C@@H](C)Oc2ccc(NS(=O)(=O)c3cccs3)cc2C(=O)N([C@@H](C)CO)C[C@H]1C | 8 | 6 | -1.9
CO[C@@H]1CN(C)C(=O)c2cc(NC(=O)Nc3ccccc3)ccc2OC[C@@H](C)N(C(=O)CC2CC2)C[C@@H]1C | -1 | -6 | 0.7
C[C@H]1CN([C@@H](C)CO)C(=O)c2cc(NC(=O)Nc3ccc(C(F)(F)F)cc3)ccc2O[C@H]1CN(C)Cc1ccc(C(F)(F)F)cc1 | 3 | 11 | -0.5
C[C@@H]1CCCCO[C@@H](CN(C)Cc2ccncc2)[C@H](C)CN([C@@H](C)CO)C(=O)c2cc(NS(=O)(=O)c3ccc(Cl)cc3)ccc2O1 | -4 | -20 | 0.7
CC(C)c1cn(CC[C@@H]2CC[C@@H](NS(=O)(=O)Cc3ccccc3)[C@H](CO)O2)nn1 | 0 | 8 | -1.6
CCCNC(=O)N1CC2(CCN(C(=O)CCC)CC2)c2c(n(C)c3cc(OC)ccc23)[C@H]1CO | -2 | 3 | 4.1
O=C(C[C@H]1CC[C@@H](NC(=O)c2ccccc2)[C@H](CO)O1)NCCc1ccncc1 | -1 | 0 | -2.7
C[C@@H]1CN([C@@H](C)CO)C(=O)Cc2cc(NS(=O)(=O)c3ccc(F)cc3)ccc2O[C@H]1CN(C)Cc1ccc(C(=O)Nc2ccccc2N)cc1 | 8 | -5 | 0.4
C[C@H](CO)N1C[C@H](C)[C@@H](CN(C)C(=O)C2CCCCC2)OCc2cn(nn2)CCCC1=O | 5&2 | -3&3 | 3.5&1.2
C[C@H](CO)N1C[C@H](C)[C@@H](CN(C)Cc2ccc3c(c2)OCO3)Oc2ccc(NC(=O)C3CCCCC3)cc2C1=O | 1 | -12 | -2.6
C[C@H](NC(=O)C[C@H]1CC[C@@H](NC(=O)C2CC2)[C@@H](CO)O1)c1ccccc1 | -5 | 7 | 0.4
O=C(C[C@H]1CC[C@H]2[C@@H](COC[C@@H](O)CN2Cc2ccccc2)O1)N[C@@H]1CCN(Cc2ccccc2)C1 | 4 | 8 | 0.2
C/C=C/c1ccc([C@H]2[C@@H](CO)N(C(=O)CC)[C@@H]2CNCC2CCCCC2)cc1 | 2 | -9 | 2.9
COc1ccc(-c2ccc([C@@H]3[C@H]4CN(C(=O)c5ccccn5)CC(=O)N4[C@H]3CO)cc2)cc1 | 0 | 3 | 8.0
CNC[C@H]1Oc2cc(C#CC(C)(C)O)ccc2S(=O)(=O)N([C@H](C)CO)C[C@H]1C | 1 | 17 | 0.1
COc1cccc(C(=O)NNS(=O)(=O)c2ccccc2)c1 | 0 | 15 | 3.9
COc1cccc(CNC(=O)[C@@H]2[C@@H](CO)[C@@H]3Cn4c(ccc(-c5cccnc5)c4=O)[C@@H]3N2C)c1 | 0 | 5 | -0.8
C[C@@H](O)C#Cc1ccc([C@H]2[C@@H](CO)N3CCCCN(CC4CC4)C[C@@H]23)cc1 | 4 | 9 | -1.6
O=C(c1cnccn1)N1C[C@H]2[C@@H](c3ccccc31)[C@H](CO)N2C(=O)CC1CC1 | 6 | 9 | -1.7
CC(C)NC(=O)Nc1ccc2c(c1)C(=O)N([C@@H](C)CO)C[C@H](C)[C@H](CN(C)S(=O)(=O)c1ccc(Cl)cc1)OCCCC[C@H](C)O2 | 3 | -2 | 4.5
O=S(=O)(c1ccccc1)N1C[C@@H]2N[C@H](C1)C2c1ccc(-c2ccccc2)cc1 (stereo partly specified) | -56&-5 | -80&5 | -11&-3.9
CO[C@@H]1CN(C)C(=O)c2cc(NC(=O)NC(C)C)ccc2OC[C@H](C)N(C(=O)CC2CC2)C[C@H]1C | -2 | -5 | -3.7
COc1ccc(C(=O)N2CCCC(C)(C(=O)NS(=O)(=O)C3CC3)C2)cc1 (stereo unspecified) | 3 | 11 | 0.1

Structural class: the entries above containing a halogen
SMILES | rRNA inh HTS | rRNA inh HTS OD600 | rRNA inh HTS RFP
O=C(CC1CC1)N1CC[C@@H]2[C@@H](CO)Nc3ccc(-c4ccc(F)cc4)cc3[C@@H]21 | -10 | -38 | -3.4
C[C@H]1CN([C@@H](C)CO)C(=O)c2cc(NC(=O)Nc3ccc(C(F)(F)F)cc3)ccc2O[C@H]1CN(C)Cc1ccc(C(F)(F)F)cc1 | 3 | 11 | -0.5
C[C@@H]1CCCCO[C@@H](CN(C)Cc2ccncc2)[C@H](C)CN([C@@H](C)CO)C(=O)c2cc(NS(=O)(=O)c3ccc(Cl)cc3)ccc2O1 | -4 | -20 | 0.7
C[C@@H]1CN([C@@H](C)CO)C(=O)Cc2cc(NS(=O)(=O)c3ccc(F)cc3)ccc2O[C@H]1CN(C)Cc1ccc(C(=O)Nc2ccccc2N)cc1 | 8 | -5 | 0.4
CC(C)NC(=O)Nc1ccc2c(c1)C(=O)N([C@@H](C)CO)C[C@H](C)[C@H](CN(C)S(=O)(=O)c1ccc(Cl)cc1)OCCCC[C@H](C)O2 | 3 | -2 | 4.5

Returning to the listing with the 3 entries that preceded the break.
SMILES | rRNA inh HTS | rRNA inh HTS OD600 | rRNA inh HTS RFP
O=S(=O)(c1ccccc1)N1C[C@@H]2N[C@H](C1)C2c1ccc(-c2ccccc2)cc1 (stereo partly specified) | -56&-5 | -80&5 | -11&-3.9
CO[C@@H]1CN(C)C(=O)c2cc(NC(=O)NC(C)C)ccc2OC[C@H](C)N(C(=O)CC2CC2)C[C@H]1C | -2 | -5 | -3.7
COc1ccc(C(=O)N2CCCC(C)(C(=O)NS(=O)(=O)C3CC3)C2)cc1 (stereo unspecified) | 3 | 11 | 0.1
O=C1NCCOCc2cnnn2CC[C@H]1Cc1ccc(F)cc1 | 6 | 14 | -2.0
COc1cccc(NC(=O)Nc2ccc3c(c2)C(=O)N(C)C[C@H](OC)[C@H](C)CN(CC2CC2)[C@@H](C)CO3)c1 | -3 | 3 | -2.7
COc1ccc(S(=O)(=O)Nc2ccc3c(c2)C(=O)N([C@H](C)CO)C[C@@H](C)[C@H](CN(C)S(=O)(=O)c2c(C)noc2C)OCCCC[C@H](C)O3)cc1 | -1 | -2 | -0.6
O=C(Nc1ccccc1F)N[C@H]1CC[C@H](CCNS(=O)(=O)c2ccc(Cl)cc2)O[C@H]1CO | -4 | -12 | -1.2
Cc1ccccc1S(=O)(=O)N(C)C[C@H]1OCc2ccccc2-c2ccccc2C(=O)N([C@H](C)CO)C[C@H]1C | -3 | -17 | 3.8
COc1ccc(OC)c(NC(=O)C2(C)CCN2CCc2ccccc2)c1 (stereo unspecified) | -20 | -34 | -12
COc1ccccc1S(=O)(=O)N[C@H]1CC[C@@H](CCn2cc(C3CCCC3)nn2)O[C@@H]1CO | -2 | 3 | -3.3
O=C(CC1CC1)N1CC(=O)N2[C@@H](CO)[C@H](c3ccc(C#Cc4ccccc4)cc3)[C@@H]2C1 | -35 | -62 | -0.6
C[C@@H]1CN([C@@H](C)CO)S(=O)(=O)c2ccc(-c3cccnc3)cc2O[C@H]1CN(C)C(=O)CN(C)C | 1 | 6 | -0.9
CO[C@@H]1CC[C@H]2CCOc3ccc(C#N)cc3C(=O)N(C)C[C@H](c3ccccc3)CC(=O)N(C)C[C@@H]1O2 | 0 | -2 | -2.3
COc1ccc2c3c(n(C)c2c1)[C@@H](CO)N(CC1CCCCC1)CC31CCN(C(=O)CN(C)C)CC1 | 3 | 10 | 2.5
COc1ccccc1CNC(=O)C[C@@H]1CC[C@@H](NC(C)=O)[C@H](CO)O1 | 3 | 3 | -1.0
Cc1ccccc1-c1ccc2c(c1)O[C@H](CN(C)C(=O)Nc1ccccc1)[C@@H](C)CN([C@H](C)CO)S2(=O)=O | 4 | -16 | -0.1
COc1ccc(S(=O)(=O)Nc2ccc3c(c2)C(=O)N([C@H](C)CO)C[C@@H](C)[C@@H](CN(C)S(=O)(=O)c2cccs2)OCCCC[C@H](C)O3)cc1 | 1 | 8 | -1.8
Cc1ccc(S(=O)(=O)N[C@@H]2CC[C@@H](CC(=O)NCCN3CCCCC3)O[C@@H]2CO)cc1 | 2 | 3 | 0.4
CN1[C@@H]2Cn3c(ccc(C4=CCCC4)c3=O)[C@H]1[C@@H](C(=O)N1CCCCC1)[C@@H]2CO | 4 | 5 | 0.1
CC=Cc1ccc2n(c1=O)C[C@@H]1[C@@H](CO)[C@H](C(=O)NCC)[C@H]2N1C(=O)c1ccc(F)cc1 (mixture of isomers) | 3 | 1 | -0.1
Cc1nccn1-c1ccc(NC(=O)[C@H]2O[C@@H](n3ccc(=O)[nH]c3=O)[C@H](O)[C@@H]2O)cc1 | 13 | 17 | -0.9
C[C@@H]1CN([C@@H](C)CO)S(=O)(=O)c2ccc(C3=CCCC3)cc2O[C@@H]1CN(C)C(=O)Cc1ccncc1 | 4 | 6 | 0.6
CCCC(=O)Nc1ccc2c(c1)C(=O)N(C)C[C@@H](OC)[C@H](C)CN(S(=O)(=O)c1cn(C)cn1)[C@H](C)CO2 | 1 | -4 | 1.4
COc1ccc(CN(C)C[C@@H]2Oc3c(NS(C)(=O)=O)cccc3C(=O)N([C@@H](C)CO)C[C@H]2C)cc1 | 4 | 1 | 2.1
COc1ccc(NC(=O)N(C)C[C@H]2Oc3ccc(NS(=O)(=O)c4cn(C)cn4)cc3CC(=O)N([C@@H](C)CO)C[C@H]2C)cc1 | 4 | 11 | 1.1
COCCNC(=O)C[C@H]1CC[C@H]2[C@@H](COc3ccc(NC(=O)c4ccno4)cc3C(=O)N2C)O1 | -1 | -1 | -1.6
Cc1ccc(S(=O)(=O)N2C[C@H]3C(=O)C[C@@H](c4ccccc4)N(S(=O)(=O)c4ccc(C)cc4)[C@H]3C[C@H]2c2cccc(Cl)c2)cc1 | 4 | 15 | -0.7
Cc1ccc(C)c(N2C(=O)c3ccc(C(=O)Nc4ccccn4)cc3C2=O)c1 | 3 | 8 | -1.4
The list goes on:
SMILES | rRNA inh HTS | rRNA inh HTS OD600 | rRNA inh HTS RFP
COCC(=O)Nc1ccc2c(c1)[C@@H]1C[C@@H](CC(=O)NCc3ccccn3)O[C@H](CO)[C@@H]1O2 | 1 | -1 | -1.7
Cc1noc(C)c1NC(=O)N[C@@H]1CC[C@H](CC(=O)N2CCN(C)CC2)O[C@@H]1CO | 0 | -2 | -1.5
C[C@@H]1CN([C@@H](C)CO)C(=O)c2cc(NC(=O)CCCCCC(=O)Nc3ccccc3N)ccc2O[C@@H]1CN(C)C(=O)Nc1ccc(F)cc1 | -5 | -5 | -2.0
COCC(=O)N1C[C@H](C)[C@H](OC)CN(C)C(=O)c2ccc(NC(=O)Nc3ccccc3)cc2OC[C@@H]1C | -2 | -1 | -0.8
Cc1noc(C)c1S(=O)(=O)Nc1ccc2c(c1)CC(=O)N([C@H](C)CO)C[C@@H](C)[C@H](CN(C)Cc1ccc(-c3ccccc3)cc1)O2 | -2 | 7 | 3.2
C[C@@H]1CN([C@H](C)CO)C(=O)CCCn2cc(nn2)CO[C@H]1CN(C)Cc1ccc(O)cc1 | 4 | 7 | -0.3
COc1cc2ccc(C=O)cc2cc1OC | 1 | 8 | 2.1
COCCNC(=O)C[C@@H]1C[C@H]2c3cc(NC(=O)Nc4ccccc4F)ccc3O[C@H]2[C@@H](CO)O1 | 1 | 0 | -2.1
C/C=C/c1ccc2c(c1)O[C@@H](CN(C)CC1CCCCC1)[C@@H](C)CN([C@@H](C)CO)S2(=O)=O | 5 | 10 | -1.9
Cc1ccc(S(=O)(=O)N(C)C[C@H]2OCCCC[C@H](C)Oc3ccc(N(C)C)cc3C(=O)N([C@@H](C)CO)C[C@@H]2C)cc1 | -4 | -3 | -0.7
COCC(=O)Nc1ccc2c(c1)C(=O)N(C)C[C@@H](OC)[C@H](C)CN(Cc1ccccc1OC)[C@@H](C)CO2 | 3 | 3 | -1.1
O=C(C[C@H]1CC[C@H]2NC[C@H](O)COC[C@@H]2O1)NCCN1CCCCC1 | 4 | 13 | -1.8
O=C(C[C@@H]1CC[C@@H]2[C@H](COC[C@@H](O)CN2S(=O)(=O)c2cccc(F)c2)O1)NCCCN1CCOCC1 | 2 | 6 | -0.9
CC(=O)N(C)C[C@@H]1Oc2cc(C#CCN(C)C)ccc2S(=O)(=O)N([C@H](C)CO)C[C@H]1C | 5 | 8 | 2.1
Cc1ccc(-c2ccc3c(c2)O[C@H](CN(C)C(=O)Nc2ccccc2)[C@H](C)CN([C@@H](C)CO)S3(=O)=O)cc1 | -6 | -2 | -1.3
CC(C)CC#Cc1cnc2c(c1)C(=O)N([C@@H](C)CO)C[C@H](C)[C@H](CN(C)Cc1ccc(C(=O)O)cc1)O2 | 2 | 1 | -0.1
CO[C@H]1CN(C)C(=O)c2ccc(NC(=O)c3ccno3)cc2OC[C@H](C)NC[C@H]1C | 4 | 4 | 0.6
C[C@@H]1CN([C@@H](C)CO)C(=O)c2cc(C#CCc3ccccc3)cnc2O[C@H]1CN(C)Cc1cccnc1 | -1 | 8 | 0.9
O=C(C[C@H]1C[C@H]2c3cc(NC(=O)Nc4ccccc4)ccc3O[C@H]2[C@@H](CO)O1)NCc1cccc(F)c1 | -4 | 0 | 9.2
COc1ccccc1CN1[C@@H]2Cn3c(cccc3=O)[C@H]1[C@@H](C(=O)N1CCc3ccccc3C1)[C@@H]2CO | -2 | -6 | 1.6
CCC(=O)Nc1ccc2c(c1)C(=O)N(C)[C@H]1CC[C@H](CC(=O)NCC3CCCCC3)O[C@H]1CO2 | -1 | 0 | -0.9
O=C(C[C@H]1C[C@H]2c3cc(NS(=O)(=O)c4ccc(F)cc4)ccc3O[C@H]2[C@H](CO)O1)N1CCOCC1 | -6 | -9 | -2.9

Compound activity: PubChem, Broad Institute

This is a subset; the hit share may differ from the screen's.
